E coli growth – E. coli growth inhibition, primary screen, OD600. Escherichia coli growth, 23 h; active compounds read low. OD600 absorbance (concentration not given with the values). actives 0.21% (n = 330,000). AID 1053175, 2014;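 active = OD600 absorbance below the run mean of sample wells minus 3.6 SD, in any replicate, cut at about 0.56 in these data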;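 also: stock transfer was 300 nL into about 60 µL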
UCH37 DUB inh – inhibitors of human UCH37 deubiquitinase, primary screen, biochemical, Ub-AMC cleavage, fluorescence. inhibition, % (test concentration not listed). Ubiquitin carboxyl-terminal hydrolase isozyme L5 (Homo sapiens), Q9Y5K5. purified proteasome/UCH37. actives 0.33% (n = 330,000). AID 588478, 2011;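 active = mean of two replicates above 20%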;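 also: 0% = compound-free wells with enzyme and 100% = wells lacking proteasome; stock transfer was 100 nL into about 20 µL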
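Reagent: Ub-AMC substrate; assay system: Proteasome-associated human UCH37 deubiquitinase; controls: no-proteasome and no-compound wells; read-out: % inhibition of Ub-AMC cleavage fluorescence; timing: 30 min preincubation with enzyme, 25 min cleavage at room temperature; signal: AMC fluorescence from Ub-AMC cleavage, excitation 355 nm, emission 460 nm; buffer or medium: Tris-HCl pH 7.4 plus ovalbumin, ATP-MgCl2, DTT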
FGF22 binding – binders of human FGF22 protein, primary screen, FGF22 synaptogenesis inhibitor project, biophysical, thermal shift, single point; Fibroblast growth factor 22 (Homo sapiens), Q9HCT0; recombinant FGF22 thermal shift, SYPRO orange fluorescence; percent of sucrose octasulfate shift, DMSO zero; calls only at 9.99 µM; actives 1.5% (n = 340,000);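 active = melting point raised past a set limit in the mean and every replicate; three in four hits are not shown here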
Target sequence (Q9HCT0 whole entry, looked up): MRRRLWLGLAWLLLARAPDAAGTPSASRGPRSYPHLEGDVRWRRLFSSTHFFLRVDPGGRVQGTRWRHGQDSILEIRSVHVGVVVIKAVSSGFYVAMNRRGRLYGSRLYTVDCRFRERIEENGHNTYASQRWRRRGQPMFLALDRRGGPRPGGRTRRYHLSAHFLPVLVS
ALR inh – inhibitors of human ALR sulfhydryl oxidase, primary screen, biochemical, H2O2 detection, HRP-luminol luminescence, single point; FAD-linked sulfhydryl oxidase ALR (Homo sapiens), P55789; purified ALR, DTT oxidation; inhibition, % (concentration not given with the values); actives 3.8% (n = 290,000); AID 485317, 2010;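 active = mean and each replicate at 75% or more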;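 also: stock transfer was 7.5 nL into about 7.5 µL; 0% = neutral wells and 100% = wells with inactivated enzyme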
Target sequence (P55789 whole entry, looked up): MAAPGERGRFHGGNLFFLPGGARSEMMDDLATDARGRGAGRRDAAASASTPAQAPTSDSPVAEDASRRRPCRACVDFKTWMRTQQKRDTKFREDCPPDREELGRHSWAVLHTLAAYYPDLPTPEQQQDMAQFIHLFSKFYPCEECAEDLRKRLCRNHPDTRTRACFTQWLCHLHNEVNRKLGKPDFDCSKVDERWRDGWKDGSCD
HNF4A DNA FP – change in binding of human HNF4A to DNA, primary screen, biochemical, fluorescence polarization, FITC-DNA. actives 0.3% (n = 360,000). 1 h. activity change, % at 10 µM. Hepatocyte nuclear factor 4-alpha (Homo sapiens), P41235; in the data active = activity change above about 30%, passing the limit was not always enough;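 also: controls were the assay level and a saturating level of protein; the project sought stronger binding though the title names inhibitors; some compounds called inactive have numbers as strong as hits; positive values seem to mean higher polarization but the record does not say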
B2AR ag – beta2AR agonists driving receptor internalization, primary screen, cell-based, FAP fluorogen, flow cytometry; Beta-2 adrenergic receptor (Homo sapiens), P07550; Am2.2-beta2AR cells; reference of the scale not given here; response, % (concentration not given with the values); actives 0.43% (n = 340,000);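 active = response above a set limit, near 3 SD of response in nonfluorescent compounds, cut at about 42% in these data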;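 also: stock transfer was 100 nL into about 11 µL; a reference agonist was the positive control; negative values mostly stem from fluorescent compounds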
Target sequence (P07550 whole entry, looked up): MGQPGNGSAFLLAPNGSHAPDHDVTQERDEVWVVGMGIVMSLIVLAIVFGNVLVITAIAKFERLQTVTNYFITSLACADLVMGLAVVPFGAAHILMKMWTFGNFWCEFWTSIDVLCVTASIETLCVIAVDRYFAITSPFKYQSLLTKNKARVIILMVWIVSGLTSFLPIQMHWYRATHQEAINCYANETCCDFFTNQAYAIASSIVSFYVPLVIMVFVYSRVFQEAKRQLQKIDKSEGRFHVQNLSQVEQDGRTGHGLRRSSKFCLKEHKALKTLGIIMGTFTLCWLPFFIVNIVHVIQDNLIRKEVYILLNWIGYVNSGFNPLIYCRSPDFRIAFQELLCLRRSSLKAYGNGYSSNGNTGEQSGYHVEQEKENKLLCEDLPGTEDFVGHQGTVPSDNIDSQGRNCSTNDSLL
LANA-H2A inh – blockers of LANA interaction with H2A/H2B – biochemical, FP readout, HTS, primary screen | Protein LANA1 (Human herpesvirus 8 type P (isolate GK18)), Q9QR71 | cell-free LANA-H2A/H2B peptide, fluorescence polarization | inhibition, % (concentration not given with the values) | actives 0.6% (n = 320,000) | AID 2629, 2010; in the data active = inhibition mostly above about 10%, no sharp cut-off; inactive = mostly below about 6.7%;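 also: stock transfer was 7.5 nL into about 10 µL; 0% = median of vehicle wells and 100% = median of positive control wells; one replicate is shown; the record names a cut of 25% in any replicate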
An asterisk follows results filed as active; i = inactive; . = no result given. Some of the compounds tested; count on the stated rates, not on these rows.

SMILES	E coli growth	UCH37 DUB inh	FGF22 binding	ALR inh	HNF4A DNA FP	B2AR ag	LANA-H2A inh
O=C1c2ccccc2C(Nc2ccc(S(=O)(=O)N3CCOCC3)cc2)N1c1cccnc1 (centres undefined)	0.76	5.3	i	.	3.3	0	4.5
CCCSc1nc2c(cnn2-c2ccc(C)c(C)c2)c(=O)[nH]1	0.78	4.1	i	-17	-2.5	-12	3.7
CCCOc1ccc(-c2cn3ccccc3n2)cc1[N+](=O)[O-]	0.66	3.5	.	-7	-0.9	2	0.7
COc1ccc(OC)c2[nH]c(=O)c(CCNC(=O)COc3ccccc3)cc12	0.69	0.8	.	.	-4.2	-1	2.1
CCn1nc(NC(=O)c2cccnc2)c2cc3cccc(C)c3nc21	0.7	-7.2	.	-6	-0.3	-8	-7.1
COC(=O)c1c(NC(=O)CSc2nnnn2-c2ccccc2)sc2c1CCC(C)C2 (centres undefined)	0.68	2.9	i	.	2.3	6	-5.1
CCCNC(=O)NC(=O)CSc1nnc(-c2c[nH]c3ccccc23)o1	0.72	2.0	i	-3	4.1	-1	1.2
CCOC(=O)C(=Cc1ccc(-c2ccsc2C(=O)OC)o1)C(=O)OCC	0.68	-88	.	.	4.9	12	2.2
CCOc1ccc(/C=N/NC(=O)c2cc3c(OC)cc(OC)cc3[nH]2)cc1OC	.	.	i	.	2.4	14	3.8
O=C(Nc1ccccc1C(=O)N1CCCC1)c1ccccc1	0.65	0.0	i	-4	-0.3	0	-5.4
NC(=S)N/N=C/C=C/c1ccccc1	.	.	i	.	1.1	-1	-1.3
CN(C)c1cc[n+](CC(=O)Nc2ccccc2C(F)(F)F)cc1	0.68	4.7	i	-19	0.8	-3	3.0
COc1ccc(S(=O)(=O)N2CC=C(C(=O)NC3CCCC3)CC2)cc1	0.64	1.0	i	3	-0.9	-11	1.2
CCOc1ccc(CCNC(=O)COC(=O)c2ccc[nH]c2=O)cc1OCC	0.72	4.5	i	-3	0.3	-4	2.3
COc1ccc(OC)c(/C=C/C(=O)c2ccc(Cl)cc2)c1	0.65	-3.7	.	22	-2.9	5	-5.7
O=c1c2c3c(sc2ncn1/N=C/c1ccco1)CCCC3	.	.	i	3	7.9	-18	-0.8
COC(=O)c1cc(OC)c(OC)cc1NC(=O)C1CCCO1 (centres undefined)	0.72	-12	.	0	0.0	-3	-2.0
Cc1cccc(C)c1NC(=O)CN(C)C(=O)c1cccc(NS(=O)(=O)c2ccccc2)c1	0.63	0.5	i	10	-1.6	4	-5.8
COc1cccc(Nc2nc(N)nc(-c3oc4ccccc4c3C)n2)c1	0.7	-9.3	.	-2	-2.1	-9	-4.5
O=C(NC1CCCC1)C(c1ccc(F)cc1)N(Cc1ccccc1)C(=O)c1csnn1 (centres undefined)	0.66	3.4	i	5	2.3	-3	-2.5
O=C(O)COc1cccc(/C=C2/SC(=S)N(Cc3ccccc3)C2=O)c1	0.69	9.6	i	6	4.9	-2	-3.3
O=C1C2CC=CCC2C(=O)N1Cc1ccccc1 (centres undefined)	0.69	1.0	i	-20	-1.9	0	-0.7
CCN(CC)S(=O)(=O)c1ccc(C(=O)OCn2c(SC)nnc(C)c2=O)cc1	0.68	4.0	.	-1	-1.7	5	2.2
O=C(NCc1ccco1)c1noc2c1CCCCC2	0.64	2.7	.	9	4.5	-7	10
O=C(Nc1cccs1)Nc1cccnc1Cl	0.63	4.0	i	.	3.4	-18	4.9
Cc1cc(C)nc(N2CCCC(C(=O)Nc3ccc(F)cc3)C2)n1 (centres undefined)	0.7	0.7	i	-2	1.0	-2	-10
N[C@@H](CCC(=O)N[C@@H](CSN=O)C(=O)NCC(=O)O)C(=O)O	.	.	i	3	-2.0	-6	1.7
O=C(N/N=C/c1ccccc1F)NC1CCCCC1	.	.	.	-7	-4.0	1	2.0
COc1ccc2c(c1)c(=O)oc1cc(OCC(=O)N3CCCC(C)C3)ccc12 (centres undefined)	0.78	-306	.	-1	-3.8	0	-1.1
Cc1ccccc1N(CC(=O)NC1CCCC1)C(=O)c1csnn1	0.71	3.0	i	-2	1.8	-1	1.0
CC(C)N1C(=O)CCC1C(=O)NCc1ccccc1Cl (centres undefined)	0.68	3.6	i	-6	0.4	-1	-2.3
COc1ccccc1C(=O)NCCC(=O)NNC(=O)Cn1ccc(C(F)(F)F)n1	0.71	1.4	i	0	-0.7	-3	1.7
O=C(NN=C1CCN(Cc2ccccc2)CC1)C(O)c1ccccc1 (centres undefined)	0.7	0.4	i	4	2.7	2	0.2
O=C(Cn1nc(C(=O)O)c2ccccc2c1=O)NCC1CCCO1 (centres undefined)	0.73	1.2	.	-22	-0.7	4	4.7
O=C(Nc1ccc2nc(C3CC3)n(Cc3ccccc3)c(=O)c2c1)C1CC1	0.72	-1.2	i	.	1.2	-1	3.8
N#Cc1c(Nc2ccc(Cl)cc2)s[nH]c1=O	0.66	3.5	i	24	10	6	-3.4

Reprinted at random: 5 entries already listed, in no set order.
SMILES	E coli growth	UCH37 DUB inh	FGF22 binding	ALR inh	HNF4A DNA FP	B2AR ag	LANA-H2A inh
O=C(NN=C1CCN(Cc2ccccc2)CC1)C(O)c1ccccc1 (centres undefined)	0.7	0.4	i	4	2.7	2	0.2
CCCOc1ccc(-c2cn3ccccc3n2)cc1[N+](=O)[O-]	0.66	3.5	.	-7	-0.9	2	0.7
COc1ccc(OC)c2[nH]c(=O)c(CCNC(=O)COc3ccccc3)cc12	0.69	0.8	.	.	-4.2	-1	2.1
COc1ccc2c(c1)c(=O)oc1cc(OCC(=O)N3CCCC(C)C3)ccc12 (centres undefined)	0.78	-306	.	-1	-3.8	0	-1.1
O=C(O)COc1cccc(/C=C2/SC(=S)N(Cc3ccccc3)C2=O)c1	0.69	9.6	i	6	4.9	-2	-3.3

Following part
SMILES	E coli growth	UCH37 DUB inh	FGF22 binding	ALR inh	HNF4A DNA FP	B2AR ag	LANA-H2A inh
CCN1CCN(CCc2nc3cc(NC(=O)COc4ccccc4)ccc3n2C)CC1	0.69	1.7	i	-15	1.4	-12	12
COc1ccccc1CP(=O)(c1ccccc1)c1ccccc1	0.66	4.5	.	-3	-1.4	-1	-2.8
O=C(N/N=C/c1cc([N+](=O)[O-])ccc1O)C(O)(c1ccccc1)c1ccccc1	.	.	i	1	1.4	5	4.4
CC1=CN2C(=NC(=O)CC2(C)C(=O)N(CC(=O)NC2CCCC2)c2ccccc2C)C=C1 (centres undefined)	0.69	i	.	-14	-0.9	4	6.2
CCCNC(=O)c1nn2c(C(F)(F)F)cc(-c3ccccc3)nc2c1Cl	0.69	-29	i	-10	3.8	-4	1.4
COc1ccccc1C=NNc1ccc([N+](=O)[O-])cn1	0.67	4.3	i	.	7.7	-4	.
N#Cc1c[nH]n2c(=O)cc(Cc3ccccc3)nc12	0.67	0.9	.	1	0.7	-3	-2.1
Cc1ccc(S(=O)(=O)N(Cc2ccc(F)cc2)Cc2ccco2)cc1	0.73	2.3	.	0	-0.4	-1	0.0
Cc1cc(C)c(C)c(S(=O)(=O)N2CCC(C(=O)N3CCN(c4ccc(F)cc4)CC3)CC2)c1C	.	.	i	.	-4.8	-2	.
CC1(c2ccccc2)CC(C)(C)N2C(=O)Cc3cccc1c32 (centres undefined)	0.73	0.8	i	-9	0.7	18	-1.2
O=C(COC(=O)Cc1ccc(Cl)cc1)Nc1ccccc1-c1ccccc1	0.69	-0.1	.	-6	-2.4	-4	-0.8
O=C(O)Cn1cc(/C=N/Nc2ccc([N+](=O)[O-])cn2)c2ccccc21	.	.	i	99*	5.5	19	0.5
COc1cccc(Cn2c(NCc3ccco3)nc3c2c(=O)n(C)c(=O)n3C)c1	0.69	5.1	.	6	.	.	1.0
CCOCCOc1cccc(C(=O)NC(C)c2ccc3ccccc3c2)c1 (centres undefined)	0.67	1.7	i	.	-0.8	-11	-2.7
O=C(CCN1CCOCC1)c1ccc2c(c1)OCCO2	.	3.4	.	50	5.0	-2	-4.8
CC(C)N(Cc1nccn1C)C(=O)c1cc(COc2ccc(F)cc2Cl)on1	0.74	0.6	i	1	3.5	4	-3.2
COc1ccc(-n2ncc(C(C)NS(=O)(=O)c3ccc(C)s3)c2C)cc1 (centres undefined)	0.72	4.6	i	-4	3.1	-1	6.3
COc1ccc(O)c(C(=O)c2cnc3c(c2)CN(C)C(=O)N3)c1	0.7	-6.6	i	14	4.1	6	4.2
O=c1c(-c2ccc(O)cc2)coc2c([C@@H]3O[C@H](CO)[C@@H](O)[C@H](O)[C@H]3O)c(O)ccc12	0.8	2.9	i	99*	-0.6	4	3.7
Cc1ccc(NC(=O)C2CCN(S(=O)(=O)c3ccc4c(c3)NC(=O)CO4)CC2)cc1	0.64	0.3	i	-8	2.6	4	1.2
CCC(/C=N/NC(=O)c1ccccc1F)CC	.	.	i	-2	3.5	3	2.4
CCOc1ccc(NC(=O)C2CCCN(c3nc(C)cc(C)n3)C2)cc1 (centres undefined)	0.64	-0.2	i	-4	-0.3	9	-3.0
Cc1cccc(OCCN2C(=O)C(=O)c3cc(C)ccc32)c1	0.69	4.6	i	20	-2.6	16	-0.3
COc1ccc(C(C(=O)NC2CCCC2)N(CC2CCCO2)C(=O)Cn2nnc(-c3ccc(C)o3)n2)cc1 (centres undefined)	0.7	-0.8	i	1	-2.4	-4	1.6
COC(=O)[C@@H]1C[C@@]2(O)[C@@H](O)[C@@H](O)[C@@H](O)C[C@H]2N1Cc1ccc(C)s1	.	-0.3	i	.	3.3	2	0.1
O=C(NCCCn1ccnc1)C(=O)NCC(c1cccnc1)N1CCN(c2ccc(F)cc2)CC1 (centres undefined)	0.74	1.6	.	68	2.2	15	-2.0
CSCCC(NC(=O)c1ccc(Cl)cc1)C(=O)O (centres undefined)	0.66	2.0	i	-12	-1.7	4	-1.0
Cc1c(C)c2c(OCC(=O)N[C@@H](C)C(=O)O)cc3c(c2oc1=O)CCC(C)(C)O3	0.7	i	i	-1	4.4	11	-3.0
Clc1ccc(-c2nnc(SCc3nc4ccccc4[nH]3)o2)c(Cl)c1	0.71	2.1	.	6	-0.4	-11	-1.0
Cc1ccc2nsnc2c1NC(=O)c1ccccc1[N+](=O)[O-]	0.71	0.6	.	-15	-1.2	7	-3.2
CN1C(C(=O)NCCc2cccs2)CC2Cn3c(nc4cc5ccccc5cc43)C21 (centres undefined)	0.67	-1.7	i	.	2.6	-1	7.7
O=C(N/C(=C\c1cccs1)C(=O)N1CCCCCC1)c1ccccc1	0.67	2.5	i	21	-2.4	-2	-0.5
O=C(CCN1C(=O)c2ccccc2C1=O)OCn1nnc2ccccc2c1=O	0.74	4.6	.	-1	-0.9	4	-1.8
COc1ccccc1NC(=S)N(Cc1ccccc1)Cc1ccccn1	0.7	3.9	.	2	-3.8	-4	-1.6
COc1ccc2nc(NC(=O)CC3Oc4ccccc4NC3=O)sc2c1 (centres undefined)	0.69	1.9	.	.	-4.0	5	2.4
COc1cc(OC)c(OC)cc1CN1CCCC(C(=O)N2CCCCC2)C1 (centres undefined)	0.68	2.0	.	-22	3.4	-2	-0.9
COc1cccc(N=c2oc3cc(O)ccc3cc2C(=O)NCC2CCCO2)c1 (centres undefined)	0.66	-265	i	-11	14	-2	2.7
COc1cccc(C2C(C(=O)c3cc4cccc(OC)c4o3)=C(O)C(=O)N2c2cc(C)on2)c1OC (centres undefined)	0.76	7.1	.	9	0.6	-4	-0.4
